Compound activity as filed in PubChem.
S aureus helic – blocks Staphylococcus aureus DNA helicase; purified S. aureus helicase, fluorescence unwinding assay; about half of the hits fall short of the stated cut; inhibition, %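 (tested at about 80 µM)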; hit rate 0.05% among 120,000; AID 485395;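 active = both duplicates at 50% or more, or one of them with a favoured structure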;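 also: 0% = mean of negative control wells and 100% = mean of positive control wells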
MgrA DNA FP – alters Staphylococcus aureus MgrA binding to DNA | fluorescence polarization | inhibition, %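 (about 10 µg/mL by stock and volumes)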 | hit rate 0.13% among 84,000 | AID 602314;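 active = above 50% in either of two replicates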;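 also: 0% = protein plus DNA without compound and 100% = DNA alone without protein; higher means less MgrA bound to DNA so lower polarization; one replicate is shown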
Numbers without * were called inactive. This is a subset; count on the stated rates, not on these rows.

CCOc1ccc(-c2nnc(SC(F)F)n2CCC(=O)OCc2ccc(C#N)cc2)cc1 was read as S aureus helic 15.
`CC(NC(=O)COc1ccc(Oc2ccccc2)cc1)C(=O)O` (stereo not drawn) gave S aureus helic 9.
Screening CN(C)CC(O)COc1cccc2ccccc12 (stereo not drawn) returned S aureus helic 10 and MgrA DNA FP -1.5.
`Cc1onc(-c2ccccc2)c1CNC(=O)C1CCC1` gave MgrA DNA FP -0.1.
Screening Cc1cc(C)c2c(n1)sc1c(N3CCN(CCO)CC3)ncnc12 returned S aureus helic 22 and MgrA DNA FP 3.0.
`COc1cccc(/C=N/NC(=O)c2ccccn2)c1` gave S aureus helic -16.
CC1CCN(Cc2c(O)ccc3c2O/C(=C\c2ccccc2)C3=O)CC1 was read as S aureus helic -20.
`CC1CCCC(C)N1C(=O)COC(=O)C1CC1` (stereo not drawn) gave S aureus helic -7 and MgrA DNA FP -0.6.
`CC(C)c1ccccc1N=C=S` gave S aureus helic -10.
Cc1cc(C(=O)N2CCN(Cc3ccc4c(c3)OCO4)CC2)cs1 was read as S aureus helic -8 and MgrA DNA FP 2.1.
Screening CC(C)N(CCCn1cccc1)C(=S)Nc1cccc(C(F)(F)F)c1 returned S aureus helic 2 and MgrA DNA FP 1.1.
`Cn1c(=O)c2c(nc(NC3CCCC3)n2C)n(C)c1=O` gave S aureus helic 13.
S=c1[nH]nc(-c2cccs2)n1CC1CCCO1 (stereo not drawn) was read as S aureus helic 11.
Screening FC(F)(F)c1cccc(OCc2nn[nH]n2)c1 returned S aureus helic 8 and MgrA DNA FP -0.7.
For CCOc1ccc(-c2csc(/C(C#N)=C/Nc3ccccc3OC)n2)cc1 the results were S aureus helic 13.
O=C(Nc1ccc2c(c1)OCCO2)N1CCC(CN2CCc3ccccc3C2)CC1 was read as S aureus helic 2 and MgrA DNA FP 0.2.
`CC1CCCCC1NC(=O)Cn1nc(-c2ccc(Cl)cc2)ccc1=O` (stereo not drawn) gave S aureus helic 3 and MgrA DNA FP -1.7.
Screening COc1ccc(Br)c(-c2nc3ccccc3c(=O)o2)c1 returned MgrA DNA FP 0.2.
Cc1c(S(=O)(=O)N2CCCc3ccccc32)cnn1-c1ccccc1 was read as MgrA DNA FP -1.2.
`O=C(CSc1ccccc1)NCc1ccccc1` gave S aureus helic 9 and MgrA DNA FP 4.7.
Screening CN1CC(=O)N(CCOc2ccccc2)C1=O returned S aureus helic -20.
Screening CCC(=O)c1cc2c(cc1N)OCCO2 returned S aureus helic 12 and MgrA DNA FP 4.3.
Screening N#Cc1c(/N=C/c2ccco2)oc(-c2ccccc2)c1-c1ccccc1 returned S aureus helic -7 and MgrA DNA FP 3.4.
Screening O=C(O)C1C2C=CC(C2)C1C(=O)Nc1ccc(C(=O)N2CCCCC2)cc1 (stereo not drawn) returned S aureus helic -3 and MgrA DNA FP -0.9.
Screening S=c1[nH]nc(-c2ccncc2)n1C1CC1 returned S aureus helic -14.
Cc1cccc2c(=O)c(NC(=O)NCC3CC3)c[nH]c12 was read as S aureus helic -12.
Screening Cn1c(C(F)(F)F)nnc1S(=O)(=O)Cc1ccc(-c2csnn2)cc1 returned S aureus helic 26.
`COc1cc(N2CCCC2)c(OC)cc1CO` gave S aureus helic 11.
Screening CC1CCCCN1C(=O)c1cnc2sccn2c1=O (stereo not drawn) returned S aureus helic 22.
O=C(COC(=O)c1c(F)cccc1Cl)NCC1CCCCC1 was read as S aureus helic -13 and MgrA DNA FP -1.4.
`Cn1nc(C(=O)NCCc2ccc(F)cc2)c2ccccc2c1=O` gave S aureus helic -9.
CCOC(=O)CCc1c(C)nc2ccc(C)cn2c1=O was read as S aureus helic 9 and MgrA DNA FP -3.1.
O=C(Cn1cnc2c(nnn2Cc2ccc(F)cc2)c1=O)c1ccc(Cl)cc1 was read as S aureus helic 6.
`CSc1sc(C(N)=O)c2c1-c1nocc1CC2` gave MgrA DNA FP -0.6.
Cc1ccc2c(CN3CCN(C(=O)C4Cc5ccccc5CN4S(C)(=O)=O)CC3)cc(=O)oc2c1 (stereo not drawn) was read as S aureus helic -21.
Screening CC(Oc1ccccc1)C(=O)NC1CCCCC1 (stereo not drawn) returned S aureus helic 4 and MgrA DNA FP 3.8.
Screening CCOC(=O)c1oc2ccccc2c1CSc1nc2ccccc2n1CCC#N returned S aureus helic 12.
O=[N+]([O-])c1ccc(Oc2ccc(Br)cc2)nc1 was read as MgrA DNA FP -2.7.
For CCOC(=O)c1c(-c2ccco2)csc1NC(=O)COC(=O)CCc1nc2ccccc2c(=O)[nH]1 the results were S aureus helic -9.
COc1cc(/C=C2\SC(=O)N(C)C2=O)ccc1OCC(=O)Nc1ccc(S(N)(=O)=O)cc1 was read as S aureus helic 15.
Screening COCCn1cnc2c(sc3nc4c(cc32)COC(C)(C)C4)c1=O returned S aureus helic 2 and MgrA DNA FP -3.1.
Cc1ccc(CSc2ncnc3c2oc2ccccc23)cc1 was read as S aureus helic 0.
Screening C=CCn1cnnc1SCc1nnc(-c2ccco2)o1 returned S aureus helic 8.
For CCSc1nc2ccc(N)cc2s1 the results were S aureus helic -10 and MgrA DNA FP 3.2.
CN(C)c1cccc(C(=O)NO)c1 was read as S aureus helic -45 and MgrA DNA FP 8.1.
Cc1ccc2nc(Nc3nc(CSc4nnc(C)s4)cc(=O)[nH]3)nc(C)c2c1 was read as S aureus helic 13.
Screening CCN1CCSc2ccc(C(=O)NCCN3CCOCC3)cc21 returned S aureus helic 30.
Screening Cc1nn(C)c(=O)c2ccccc12 returned S aureus helic 7.
For COc1cc2c(cc1NC(=O)C(C)Sc1nnc(C)c(=O)n1N)oc1ccccc12 (stereo not drawn) the results were S aureus helic -13.
`CC(C)(C)c1ccc2cc(C#N)c(C#N)cc2c1` gave MgrA DNA FP -1.0.
Screening Cc1nc2ccccc2[nH]1 returned S aureus helic 2.
Screening CC1=C(C(=O)Nc2ccc(C(=O)O)cc2)SCCO1 returned S aureus helic 10.
`Cc1ccc(-c2csc3nc(Cc4ccccc4)oc(=O)c23)cc1` gave MgrA DNA FP -1.9.
O=C1CS(=O)(=O)N(Cc2ccccc2)c2ccsc21 was read as S aureus helic -28.
Screening O=C(CS(=O)(=O)Nc1ccc(F)cc1Cl)Nc1ccc(F)cc1Cl returned MgrA DNA FP 2.0.
Screening Clc1snnc1COc1ccc2c(c1)OCO2 returned MgrA DNA FP -2.6.
For CCN(CC)C(=O)Oc1ccc(Cl)c2cccnc12 the results were S aureus helic 6 and MgrA DNA FP 0.1.
N#C/C(=C\c1ccc2c(c1)OCCO2)C(N)=S was read as S aureus helic 12.
Screening O=C(COC(=O)CN1C(=O)C2CC=CCC2C1=O)Nc1ccc2c(c1)OCO2 (stereo not drawn) returned S aureus helic 0.
For O=C(Nc1ccc(Cl)cc1)Oc1ccccc1N1CCSCC1 the results were MgrA DNA FP -0.5.
O=C(CSc1nnnn1-c1ccccc1)Nc1ccc(-c2ccccc2)cc1 was read as S aureus helic -7.
Screening COc1cccc(C(=O)c2cc3ccc(O)cc3oc2=O)c1 returned S aureus helic -23.
For CC(C)c1nnc(NC(=O)C(C)(C)C)s1 the results were S aureus helic -6.
`S=c1[nH]nc(CN2CCCC2)o1` gave S aureus helic 1.
`COCCN1C(=O)c2ccccc2C(C(=O)NCCN2CCOCC2)C1c1cn(C)c2ccccc12` (stereo not drawn) gave S aureus helic 9 and MgrA DNA FP 0.0.
`CC1(C)C2CCC1(C)C(N1CCN(Cc3ccccc3)CC1)C2` (stereo not drawn) gave MgrA DNA FP 0.8.
Screening O=C(CSc1ccccc1F)NCC(c1cccs1)N1CCOCC1 (stereo not drawn) returned S aureus helic 5.
For C=CCn1c(C)cc(C(C)(C)c2cc(C)n(CC=C)c2C)c1C the results were S aureus helic -86.
For Cc1ccc(NC(=O)CN(c2nccs2)S(=O)(=O)c2ccccc2)cc1 the results were S aureus helic -2.
`COc1cc(CNc2cccc(F)c2)cc(OC)c1OC` gave MgrA DNA FP 0.7.
Screening Cn1cccc1/C=C1\C(=O)NC(=S)N(c2ccccc2)C1=O returned S aureus helic 20 and MgrA DNA FP 33.
Screening Cc1ccc(S(=O)(=O)NNC(=S)NCC2CCCO2)cc1 (stereo not drawn) returned S aureus helic 0 and MgrA DNA FP -1.1.
NC(=O)CCSCc1ccc(Cl)c(Cl)c1 was read as S aureus helic -3 and MgrA DNA FP -5.6.
O=C1ON(c2ccccc2)C(c2ccc3c(c2)OCO3)N1c1ccccc1 (stereo not drawn) was read as S aureus helic -14.
CCOc1ccccc1NC(=O)COC was read as S aureus helic 5 and MgrA DNA FP -0.9.
For Cc1ccccc1C(=O)OCC(=O)c1sc2ccccc2c1C the results were MgrA DNA FP -3.0.
Screening CC1Cc2ccccc2N1C(=O)Cn1c(=O)cc(O)c2ccccc21 (stereo not drawn) returned S aureus helic -5.
COCCN1C(=O)/C(=C\N2CCN(c3ccc(OC)cc3)CC2)C(=O)NC1=S was read as S aureus helic 14.
`CC(C)(C)c1ccc(C(=O)CC(NCc2ccccc2)C(=O)O)cc1` (stereo not drawn) gave S aureus helic 1 and MgrA DNA FP 3.8.
`Cc1c(O)ccc2c(CN(C)CC3COc4ccccc4O3)cc(=O)oc12` (stereo not drawn) gave S aureus helic -9.
For COc1ccnc(N2CCN(C(=O)OC(C)(C)C)CC2)n1 the results were S aureus helic -9.
Screening COc1ccc(C2C(C(=O)O)CCC(=O)N2c2ccc(OC)cc2)cc1 (stereo not drawn) returned S aureus helic 11.
Screening COc1ccc2oc(=O)c(NC(=O)C3CCCCC3)cc2c1 returned S aureus helic -9.
`N#CCCn1[nH]c(=O)ccc1=O` gave S aureus helic 6.
`CCCc1cc(=O)n2c3c(sc2n1)C(=O)N(Cc1ccccc1)C3=O` gave S aureus helic 9 and MgrA DNA FP -5.0.
For CNC(=O)CNC(=O)Nc1ccccc1OC the results were S aureus helic 9.
`O=C(Cn1ncn2c(cc3sccc32)c1=O)NC1CCCc2ccccc21` (stereo not drawn) gave S aureus helic -5.
`COc1ccc2[nH]cc(/C=C(/C#N)S(=O)(=O)c3ccccc3)c2c1` gave MgrA DNA FP -0.9.
For CC(=O)N1CCc2cc(Br)cc(S(=O)(=O)NN3CCN(c4ccc(F)cc4)CC3)c21 the results were S aureus helic -32.
Screening CN1/C(=C\C(=O)c2cccc(Cl)c2)C(C)(C)c2ccccc21 returned S aureus helic -8 and MgrA DNA FP 0.2.
`CCS(=O)(=O)N1CCN(c2ccnc3cc(Cl)ccc23)CC1` gave MgrA DNA FP -4.1.
For Cc1cc(C(=O)NCc2ccc(F)cc2)n(-c2ccccc2)n1 the results were S aureus helic 6 and MgrA DNA FP 0.8.
`O=S(=O)(c1ccccc1)n1cccc1` gave MgrA DNA FP -0.2.
Screening CC12CCC(O)(CC1)CC2=O returned MgrA DNA FP -2.9.
O=C(NCCc1nc2ccccc2[nH]1)c1ccc(Cl)c(Cl)c1 was read as S aureus helic 5 and MgrA DNA FP 0.8.
For Cc1ccc(S(=O)(=O)CCSCc2csc3ccccc23)cc1 the results were MgrA DNA FP -1.6.
Screening CCCNC(=O)N1CCN(c2cccc(C(F)(F)F)c2)CC1 returned S aureus helic 5 and MgrA DNA FP 0.5.
CC(CCc1ccccc1)NC(=O)CCc1cn(Cc2ccc(F)cc2)c2ccccc12 (stereo not drawn) was read as S aureus helic 2 and MgrA DNA FP 0.8.
CC(=O)OCCNc1nc(-c2ccccc2)nc2ccccc12 was read as S aureus helic -1.
Screening NNC(=O)CCN1CCN(c2ccccc2)CC1 returned S aureus helic 17.
`CCOC(=O)c1cn2nc(-c3ccc(OC)cc3)cc2nc1C1CCN(C(=O)OC(C)(C)C)CC1` gave S aureus helic 15 and MgrA DNA FP 2.2.
CCCCC#Cc1ccc(C(=O)NNC(=O)Nc2cc(Cl)cc(Cl)c2)o1 was read as MgrA DNA FP -0.4.
O=[N+]([O-])c1ccccc1SCc1n[nH]c(=S)n1-c1cccc(C(F)(F)F)c1 was read as MgrA DNA FP 1.5.
For COCCCNC(=S)Nc1ccc(Oc2ccc(Cl)cc2)cc1 the results were MgrA DNA FP -0.9.

In the list so far, these have a Cl atom.
`CC1CCCCC1NC(=O)Cn1nc(-c2ccc(Cl)cc2)ccc1=O` (stereo not drawn) gave S aureus helic 3 and MgrA DNA FP -1.7.
O=C(COC(=O)c1c(F)cccc1Cl)NCC1CCCCC1 was read as S aureus helic -13 and MgrA DNA FP -1.4.
O=C(Cn1cnc2c(nnn2Cc2ccc(F)cc2)c1=O)c1ccc(Cl)cc1 was read as S aureus helic 6.
Screening O=C(CS(=O)(=O)Nc1ccc(F)cc1Cl)Nc1ccc(F)cc1Cl returned MgrA DNA FP 2.0.
Screening Clc1snnc1COc1ccc2c(c1)OCO2 returned MgrA DNA FP -2.6.
For CCN(CC)C(=O)Oc1ccc(Cl)c2cccnc12 the results were S aureus helic 6 and MgrA DNA FP 0.1.
For O=C(Nc1ccc(Cl)cc1)Oc1ccccc1N1CCSCC1 the results were MgrA DNA FP -0.5.
NC(=O)CCSCc1ccc(Cl)c(Cl)c1 was read as S aureus helic -3 and MgrA DNA FP -5.6.
Screening CN1/C(=C\C(=O)c2cccc(Cl)c2)C(C)(C)c2ccccc21 returned S aureus helic -8 and MgrA DNA FP 0.2.
`CCS(=O)(=O)N1CCN(c2ccnc3cc(Cl)ccc23)CC1` gave MgrA DNA FP -4.1.
O=C(NCCc1nc2ccccc2[nH]1)c1ccc(Cl)c(Cl)c1 was read as S aureus helic 5 and MgrA DNA FP 0.8.
CCCCC#Cc1ccc(C(=O)NNC(=O)Nc2cc(Cl)cc(Cl)c2)o1 was read as MgrA DNA FP -0.4.
For COCCCNC(=S)Nc1ccc(Oc2ccc(Cl)cc2)cc1 the results were MgrA DNA FP -0.9.
